Sa growth 42C: S. aureus growth inhibition at 42 and 30 °C, primary screen, LtaS inhibitor project, RN4220, two temperatures; OD600, 20 h, 42 °C; active compounds read low; relative growth, % (concentration not given with the values); 170,000 tested, 0.53% active; AID 720641, 2013;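 active = growth at 42 °C up to 50% and 20 or more points under that at 30 °C, or under 10% at both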;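 also: 300 nL library stock went into each well; scaled to the means of positive and negative controls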
GIV Gai3 FP: inhibitors of GIV peptide binding to Galpha-i3, primary screen, biochemical, fluorescence polarization, FITC-GIV GBA peptide, rat Galphai3; percent of control (FP), % (no concentration beside the values); Guanine nucleotide-binding protein G(i) subunit alpha-3 (Rattus norvegicus), P08753; 210,000 tested, 0.42% active; 90 min; active compounds read low; scaled: aluminum fluoride 0%, vehicle 100%;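 active = replicate mean at 85% of control or lower, very high polarization wells dropped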;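 also: wells of about 15 µL received 100 nL stock; the first replicate is given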
Target sequence (P08753 whole entry, looked up): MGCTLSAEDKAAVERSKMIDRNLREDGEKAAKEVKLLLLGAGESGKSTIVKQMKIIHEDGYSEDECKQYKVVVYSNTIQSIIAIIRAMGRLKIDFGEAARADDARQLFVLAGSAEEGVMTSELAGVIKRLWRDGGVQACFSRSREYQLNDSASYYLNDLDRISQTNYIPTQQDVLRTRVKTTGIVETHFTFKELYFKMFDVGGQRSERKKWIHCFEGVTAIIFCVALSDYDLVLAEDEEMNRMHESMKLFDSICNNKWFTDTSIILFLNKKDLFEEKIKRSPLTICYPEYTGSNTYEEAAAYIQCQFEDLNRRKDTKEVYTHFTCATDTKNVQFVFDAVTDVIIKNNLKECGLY
HCMV NEC inh: inhibitors of HCMV UL50-UL53 interaction, biochemical, HTRF; HCMV UL50-UL53 nuclear egress complex (human cytomegalovirus); normalized percent inhibition; inhibition, % (no concentration beside the values); 190,000 tested, 0.15% active;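 active = both replicates at 50% or more, plus weaker picks with an unusually low signal ratio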;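 also: stock transfer was 100 nL into about 20 µL; 0% = negative control wells and 100% = wells with untagged competitor protein; inactives centre near -12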
Sa growth 42C second temp: recorded beside Sa growth 42C, whose call it bears; relative growth, %; measured here: growth at 30 °C;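 optical density after 20 h as mean of two plates; 100% = untreated growth and lower means inhibition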
* = called active by the depositor; / = no result given; & = joins results of further samples.

SMILES | Sa growth 42C | Sa growth 42C second temp | GIV Gai3 FP | HCMV NEC inh
Cc1ccc(C)c(N2CCN(C(=O)c3cccn4c(=O)c5ccccc5nc34)CC2)c1 | 90 | 90 | 104 | /
Cc1ccc(-c2csc(C(=O)NCCc3ccc(S(N)(=O)=O)cc3)c2-n2cccc2)cc1 | / | / | 102 | -4
O=C(O)CCNC(=O)NC12CC3CC(CC(C3)C1)C2 | 92 | 88 | 106 | -13
Cc1cc(C)c(NC(=O)C(C)OC(=O)c2ccccc2O)c(C)c1 (centres undefined) | 87 | 94 | / | -8
N#CCC12CC3CC(CC(C3)C1)C2 | 88 | 84 | / | -11
Cc1cc(-c2ccc(C)c(S(=O)(=O)NCc3cccnc3)c2)on1 | 100 | 82 | 110 | -6
COC(=O)Cc1c(C)c2ccc(OCC(=O)c3ccc(N4CCCC4)cc3)cc2oc1=O | 106 | 93 | 101 | -18
CC1(C)Cc2cccc(C(=O)N3CCC(c4c[nH]c5ccccc45)CC3)c2O1 | 113 | 88 | 101 | -54
CN(C)c1ccc(/C=C/C(=O)/C=C/c2ccc3c(c2)OCO3)cc1 | 121 | 81 | -64* | /
O=C(CN1N=C(c2ccccc2)c2cc(Cl)ccc2S1(=O)=O)Nc1ccc(Cl)cc1 | / | / | 97 | 10
COc1ccccc1CNC(=O)CCn1c(=O)c2cccn2c2cccnc21 | 81 | 76 | 102 | /
Cc1ccc(CN2C(=O)CN(C3CCC(C)CC3)C(=O)C2c2ccc(F)cc2)cc1 (centres undefined) | 88 | 97 | 104 | /
O=C(NCCC1=CCCCC1)Nc1c[nH]c2ccccc12 | 78 | 79 | 108 | -21
O=C(NCCCN1CCN(CCCNC(=O)c2ccc(F)cc2)CC1)c1ccc(F)cc1 | 92 | 86 | 98 | -34
CC1CNc2ccccc2N(Cc2ccccc2)C1=O (centres undefined) | / | / | 95 | -4

Profiles as entered above. Order of values: Sa growth 42C, Sa growth 42C second temp, GIV Gai3 FP, HCMV NEC inh
Entry for COC(=O)Cc1c(C)c2ccc(OCC(=O)c3ccc(N4CCCC4)cc3)cc2oc1=O → 106, 93, 101, -18
Entry for CN(C)c1ccc(/C=C/C(=O)/C=C/c2ccc3c(c2)OCO3)cc1 → 121, 81, -64*, /
Entry for CC1(C)Cc2cccc(C(=O)N3CCC(c4c[nH]c5ccccc45)CC3)c2O1 → 113, 88, 101, -54
Entry for Cc1cc(-c2ccc(C)c(S(=O)(=O)NCc3cccnc3)c2)on1 → 100, 82, 110, -6
Entry for Cc1ccc(C)c(N2CCN(C(=O)c3cccn4c(=O)c5ccccc5nc34)CC2)c1 → 90, 90, 104, /

The results go on.
SMILES | Sa growth 42C | Sa growth 42C second temp | GIV Gai3 FP | HCMV NEC inh
COc1ccc2cc3cc(C(=O)N4CCN(c5cccc(Cl)c5)CC4)sc3nc2c1 | 105 | 93 | 107 | -14
CC(C)(C)Cc1nc2ccccc2[nH]1 | 114 | 92 | / | 0
Cc1c(C(=O)NCCCN2CCOCC2)oc2ccc3c(c12)C(=O)CC1(CCCCC1)O3 | 105 | 85 | 104 | -63
C=CCN1C(=O)C(C(=O)O)C(=O)c2ccccc21 (centres undefined) | 87 | 82 | 96 | -1
CCc1ccc(CNCC2CCCO2)cc1 (centres undefined) | 107 | 88 | / | -5
CC(=O)N1CCN(c2nnc(N)s2)CC1 | / | / | 112 | 8
COC(=O)c1cc(S(=O)(=O)NC2CCN(Cc3ccccc3)CC2)c[nH]1 | 100 | 106 | 107 | -1
COC(=O)NCc1c(C)nn(-c2ccccc2)c1-n1cccc1 | 106 | 86 | 99 | -20
O=C(NCCC1=CCCCC1)c1ccc2c(c1)N(Cc1ccccc1)C(=O)c1ccccc1S2=O (centres undefined) | 107 | 102 | 101 | -8
O=c1c2ccccc2[nH]c(=S)n1Nc1ccccc1 | 128 | 95 | 103 | -12
O=S(=O)(CS(=O)(=O)c1ccc(Cl)cc1)c1ccc(Cl)cc1 | 83 | 86 | 100 | -19
Cc1nn(CCC#N)c2c1P(=O)(c1ccccc1)/C(=C1\N(C)c3ccccc3C1(C)C)C=N2 (centres undefined) | 105 | 98 | / | -42
C/C(=N\NC(=O)C1CC1)c1ccc(OC(F)F)cc1OC(F)F | 94 | 93 | / | 3
COc1ccc(C2CCCN2S(C)(=O)=O)cc1 (centres undefined) | / | / | 100 | -36
CCCCN(C(=O)C1CCC(CNS(=O)(=O)c2cccc3nsnc23)CC1)c1ccccc1 (centres undefined) | 87 | 88 | 104 | -34

5 consecutive records from above, quoted:
SMILES | Sa growth 42C | Sa growth 42C second temp | GIV Gai3 FP | HCMV NEC inh
CC1(C)Cc2cccc(C(=O)N3CCC(c4c[nH]c5ccccc45)CC3)c2O1 | 113 | 88 | 101 | -54
CN(C)c1ccc(/C=C/C(=O)/C=C/c2ccc3c(c2)OCO3)cc1 | 121 | 81 | -64* | /
O=C(CN1N=C(c2ccccc2)c2cc(Cl)ccc2S1(=O)=O)Nc1ccc(Cl)cc1 | / | / | 97 | 10
COc1ccccc1CNC(=O)CCn1c(=O)c2cccn2c2cccnc21 | 81 | 76 | 102 | /
Cc1ccc(CN2C(=O)CN(C3CCC(C)CC3)C(=O)C2c2ccc(F)cc2)cc1 (centres undefined) | 88 | 97 | 104 | /

Next structures:
SMILES | Sa growth 42C | Sa growth 42C second temp | GIV Gai3 FP | HCMV NEC inh
O=C(NCCc1ccccc1)c1cc(-c2ccc(Cl)cc2)on1 | 99 | 100 | 102 | -9
COc1ccc(Nc2cc(C(=O)NCc3ccco3)c3ccccc3n2)cc1 | 119 | 94 | 105 | /
Cc1ccc(-c2nn(-c3ccccc3)cc2/C=C/C(=O)OCC(=O)Nc2ccc3[nH]c(=O)[nH]c3c2)o1 | 53 | 55 | / | -3
COc1ccc(C2OC(=O)C(C)=C(O)C2(C)C)cc1OC (centres undefined) | 92 | 92 | / | 1
Cc1ccc(C)c(CN(C2=NC3CS(=O)(=O)CC3S2)c2cccc(Cl)c2)c1 (centres undefined) | 116 | 39 | 101 | /
Cc1ccc(CCNC(=O)C2CCCN(S(=O)(=O)c3cccs3)C2)cc1 (centres undefined) | 110 | 84 | 100 | -24
CC(C)=CC(=O)Nc1nnc(Cc2ccccc2)s1 | 103 | 78 | 99 | -4
CC1=C(C(=O)NCc2ccc(Cl)cc2)C2(CCCCCC2)OC1=O | 78 | 101 | 100 | /
Cc1c(C(=O)NCc2ccccc2Br)cc(-c2ccccc2)n1C | / | / | 104 | -18
C=CCNC(=O)C1CC1(c1ccccc1)c1ccccc1 (centres undefined) | 95 | 90 | / | -5
Cc1oc2c(c1C(=O)NCc1ccccc1F)C1=NCCN1C=N2 | 79 | 89 | 113 | /
CC(=O)N=C1SC2CS(=O)(=O)CC2N1Cc1ccccc1 (centres undefined) | 87 | 86 | 107 | /
COc1ccc(NC(=O)CN2CCN(S(=O)(=O)c3ccc(Br)cc3)CC2)cc1 | 84 | 85 | 104 | /
CC(=Nc1cccc(N2CCCC2=O)c1)C1=C(O)CC2(CCCCC2)CC1=O | 84 | 81 | / | -20
O=C(c1c[nH]c2ccc(S(=O)(=O)Nc3ccccc3F)cc2c1=O)N1CCCC1 | 103 | 97 | 96 | 0
Cc1ccc(SCCNC(=O)C(C)C)cc1 | 104 | 107 | 103 | -13
O=C(SCc1nc2ccccc2[nH]1)c1ccc(-c2ccccc2)cc1 | 91 | 78 | / | -3
Cc1ccc(N2C(=N)S/C(=C\c3ccc(-c4ccc(F)cc4)o3)C2=O)cc1C | 90 | 68 | 122 | -8
CCOC(=O)c1ccccc1NC(=O)CSc1ncc(CO)n1Cc1ccc(Cl)cc1 | / | / | 99 | -1
N/C(=N/S(=O)(=O)Cc1ccccc1)N1CCOCC1 | 89 | 91 | 103 | -20
COc1ccc(C2CC(=O)c3cnc(NC(C)=O)nc3C2)cc1OC (centres undefined) | 82 | 92 | / | -23
S=C(NCc1ccccc1)N1CCN(Cc2ccc3c(c2)OCO3)CC1 | 120 | 77 | / | -8
Cc1noc2nc(C)n(Cc3cccc(Cl)c3)c(=O)c12 | / | / | 106 | -21
COc1ccc(/C=N/N=C2\NC(=O)C(CC(=O)Nc3ccccc3)S2)cc1 (centres undefined) | 79 | 71 | 101 | -31
COC(=O)/C(=C(/O)CSc1nnnn1C)c1nc2ccccc2[nH]1 | 105 | 101 | / | -4
CCS(=O)(=O)c1ccc(-c2ccc(NC(=O)c3cc(C)cc(C)c3)cc2)nn1 | / | / | 103 | -7
CCCNC(=O)C1CCCN(S(=O)(=O)N2CCC3(CC2)OCCO3)C1 (centres undefined) | 79 | 88 | 97 | /
O=C(Cn1c(Cc2ccccc2)nc2sc3c(c2c1=O)CCCC3)Nc1ccc(Oc2ccccc2)cc1 | / | / | 100 | -25
CCOC(=O)C1CCN(CC(O)COc2ccc3ccccc3c2)CC1 (centres undefined) | 107 | 88 | 107 | -30
CC12CC3(C)CC(O)(C1)CC(C(=O)c1ccccc1)(C2)C3 | 101 | 92 | / | -20
CCC1=C(C(=O)OC)C(c2ccc(Cl)cc2)n2ncnc2N1 (centres undefined) | 105 | 86 | 101 | -14
CCSc1nnc(NC(=O)c2ccc(=O)n(C)n2)s1 | 87 | 96 | / | -36
NNC(=O)CSc1ccccc1F | 70 | 89 | / | -24
CN(C(=O)c1cnc(N2CCN(c3ncccn3)CC2)c2ccccc12)c1ccc(Cl)cc1 | 100 | 94 | 102 | 7
COc1ccc(Nc2cc(C(=O)NCCCN(C)Cc3ccccc3)c3ccccc3n2)cc1OC | 118 | 100 | 102 | /
NC(=O)C1CCN(C(=O)Cc2ccc(Cl)cc2)CC1 | 96 | 83 | 101 | -9
Cc1ccccc1-c1nnc(SCC(=O)N(C)c2ccccc2)o1 | 113 | 83 | 101 | -19
COc1ccc(CNC(=O)c2cc(-c3ccc(Cl)cc3)n[nH]2)cc1 | 85 | 94 | 103 | /
CC(C)(C)c1csc(-c2sccc2CS(=O)(=O)c2ccc(Cl)cc2)n1 | 96 | 87 | 101 | -40
CC(C)C(NC(=O)CSc1ccc(Cl)cc1)C(=O)O (centres undefined) | 101 | 101 | / | -4
CCC(CC)NC(=O)c1ccc2c(c1)OCO2 | 79 | 83 | / | -18
CCC(Sc1nc(=O)cc(N)n1-c1ccccc1)C(=O)Nc1ccc(Cl)cn1 (centres undefined) | 92 | 92 | 102 | -24
CCn1c(=NC(=O)c2cccc(N3C(=O)CCC3=O)c2)sc2c(C)ccc(OC)c21 | 104 | 85 | 102 | -28
O=C(CN1CCOCC1)NC12CC3CC(CC(C3)C1)C2 | 104 | 103 | 109 | -18
O=S(=O)(NCC1CCCO1)c1ccc(S(=O)(=O)N(Cc2ccccc2)Cc2ccc(Cl)cc2)cc1 (centres undefined) | / | / | 99 | -21
Cc1ccc2nc(-c3ccco3)c(Nc3ccc4c(c3)OCCO4)n2c1 | 104 | 93 | 102 | -6
CCOc1cc(C(=O)NCCc2csc3nc(-c4ccccc4F)nn23)cc(OCC)c1OCC | 92 | 85 | 101 | /
Fc1cccc(-n2ncc3c2ncn2nc(COc4ccc(Cl)cc4)nc32)c1 | 103 | 89 | 100 | 7
Clc1cccc(CSc2ncnc3nc[nH]c23)c1 | / | / | 99 | -18
CCC(CC)C(=O)Nc1ccc2nc(SCC(=O)N3c4ccccc4CC3C)sc2c1 (centres undefined) | 92 | 83 | 100&102 | -29&-14
CC(=O)Nc1cc(Br)c2c(c1)OCCO2 | 87 | 87 | 100 | -14
CN1C(=O)/C(=C\N2CCCCC2)C(=O)NC1=S | 84 | 103 | 96 | -8
CCc1ccccc1NC(=O)N1CCC2(CC1)c1cccn1-c1ccccc1N2CC | / | / | 100 | -15
O=c1sc(-c2ccccc2)nc(O)c1Cc1ccccc1 | 116 | 83 | 96 | 4
COc1ccc2cc(C(=O)Nc3ccc(OC)c(NC(=O)c4cccc(C)c4)c3)[nH]c2c1 | / | / | 98 | -30
CC(=O)NCCNC(=O)c1ccc2c(=O)n(CCc3ccccc3)c(=O)[nH]c2c1 | 98 | 90 | 106 | -10
CCOc1ccc(/C=N/n2nnnc2N)cc1OCC | 105 | 92 | 97 | -72
Cc1ccc(Cl)cc1N1CCN(S(=O)(=O)c2ccc3c(c2)CCN3C(=O)C2CCC2)CC1 | 104 | 93 | 105 | -2
Cc1ccsc1CNC(C)(C)CO | 95 | 85 | 96 | -2
CCCCNC(=O)Cn1nc(Cc2ccncc2)c2ccccc2c1=O | 105 | 84 | 102 | -17

(more compounds)
SMILES | Sa growth 42C | Sa growth 42C second temp | GIV Gai3 FP | HCMV NEC inh
CCOc1ccc(C2CC(=O)c3c([nH]c(C(=O)OCc4ccccc4)c3C)C2)cc1 (centres undefined) | 102 | 98 | 107 | -6
O=C(CSc1nncn1-c1ccccc1)NC1CC1 | 108 | 91 | / | -6
Cc1ccc(C(=O)NCC2OCCc3ccccc32)cc1 (centres undefined) | 91 | 85 | 104 | /
COc1ccc(-c2nnc3c4cnn(-c5cccc(C)c5)c4ncn23)cc1OC | / | / | 97 | -10
CCOc1cc(-c2nc(-c3ccc(-c4ccc(OC)cc4)nc3OC)no2)cc(OCC)c1OCC | 103 | 85 | 108 | -30
O=C1CSC(=NC2CC2)N1Cc1cccs1 | 101 | 93 | 98 | -38
C=CCNc1ccc(C(=O)O)cc1 | 98 | 99 | 102 | -31
c1ccc(NCc2cccnc2)cc1 | 98 | 81 | 103 | -15&-25
Cc1ccc(OCC(O)CN2CCN(CCN3C(=O)c4cccc5cccc(c45)C3=O)CC2)c(C)c1 (centres undefined) | / | / | 103 | -104
Cc1cccc2sc(N3CCN(C(=O)c4ccco4)CC3)nc12 | 103 | 60 | 97 | /

From PubChem BioAssay

Rows are unselected; any-hit rate near 0.82%.
